D2 agonist – activates the human D2 dopamine receptor. P14416. DiscoveRx PathHunter D2 beta-arrestin, luminescence, 90 min; 100% = 57 uM dopamine signal. activation, % (no concentration beside the values). 360,000 compounds, 0.084% hits. AID 624465; in the data active = activation above about 40%; inconclusive = about 15% to 40%; inactive = below about 15%; note: compound concentration not given in the record; the text of the record calls up to 30% inactive
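DiscoveRx PathHunter D2 beta-arrestin cells (2,100/well) attached overnight, then compound-stimulated 90 min at 37 C in HBSS/10 mM HEPES/0.1% Tween-20 buffer; beta-galactosidase complementation read by luminescence after 1 h at ambient temperature. Dopamine 57 uM final (EC100) as control.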
TRPV1 potentiator – enhances activation of the human vanilloid receptor TRPV1; Q8NER1; potentiation, % at 8.33 µM; TRPV1-expressing cells, Fluo-8 calcium influx, capsaicin EC20 potentiation; host cell line not named in the record; control for the full effect not named in the record; 320,000 compounds, 0.02% hits; AID 540277; active means potentiation above 80%; inconclusive means 30% to 80%; inactive means below 30%; note: 0% is about no effect
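Fluo-8 calcium influx in TRPV1-expressing cells, kinetic read (ex 480/em 520 nm). Compound added and read 3 min for agonist activity, followed by capsaicin at EC20 final and 2 min further read for enhancement.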
PINK1 expr mod – PINK1 expression modulation. AID 624263. PINK1 immunofluorescence, high-content cytometry, 24 h. Potency, µM (titrated, usually from 76.6 µM), inactives show at the top dose activation (PINK1 increase), most hits filed as activators. 410,000 compounds, 0.2% hits; active = well fitted activation curve with a large enough effect; inconclusive = small, poorly fitted or top-dose-only effect; inactive = flat fitted curve, though single readings scatter; cell line not stated here;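 note: potency is the fitted concentration of half-maximal effect; % of control where 0% means no effect; nearly all actives have a fitted effect of over 65% in size; a mitochondrial uncoupler was the plate control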
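Fluorescence from anti-PINK1 antibody, together with nuclear and cell stains, was scanned on a laser-scanning cytometer. Before staining, stable-line cells were incubated 24 hours with compounds at 5 concentrations; primary antibody 12 h at 10 degrees C.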
Six1-Eya2 blk – Six1/Eya2 interaction inhibition | Q15475+O00167 | 360,000 compounds, 0.56% hits | activity change, % (test concentration not listed) | AlphaScreen GST-Six1/His-Eya2 binding, biochemical; stronger effect = lower value; control for the full effect not named in the record | AID 651725; in the data active = activity change below about -65%; inconclusive = about -30% to -65%; inactive = above about -30%; note: % is set by controls: 0 for no effect and ±100 for the full control effect
Target sequence (O00167 whole entry, looked up): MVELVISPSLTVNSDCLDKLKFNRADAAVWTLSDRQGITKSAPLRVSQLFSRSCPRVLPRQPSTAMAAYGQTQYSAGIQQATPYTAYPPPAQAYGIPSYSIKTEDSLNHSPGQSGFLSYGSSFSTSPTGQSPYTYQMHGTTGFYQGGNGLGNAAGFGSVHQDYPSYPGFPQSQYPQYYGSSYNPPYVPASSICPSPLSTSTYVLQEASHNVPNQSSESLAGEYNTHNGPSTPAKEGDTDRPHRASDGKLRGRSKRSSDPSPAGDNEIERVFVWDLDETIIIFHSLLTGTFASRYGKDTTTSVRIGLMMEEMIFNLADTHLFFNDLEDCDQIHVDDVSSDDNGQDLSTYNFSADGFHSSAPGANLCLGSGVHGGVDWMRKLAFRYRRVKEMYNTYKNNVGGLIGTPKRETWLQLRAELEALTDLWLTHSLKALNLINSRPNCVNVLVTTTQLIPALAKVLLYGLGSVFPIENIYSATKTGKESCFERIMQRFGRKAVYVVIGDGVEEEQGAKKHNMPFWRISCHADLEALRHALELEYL
Target sequence (Q15475 whole entry, looked up): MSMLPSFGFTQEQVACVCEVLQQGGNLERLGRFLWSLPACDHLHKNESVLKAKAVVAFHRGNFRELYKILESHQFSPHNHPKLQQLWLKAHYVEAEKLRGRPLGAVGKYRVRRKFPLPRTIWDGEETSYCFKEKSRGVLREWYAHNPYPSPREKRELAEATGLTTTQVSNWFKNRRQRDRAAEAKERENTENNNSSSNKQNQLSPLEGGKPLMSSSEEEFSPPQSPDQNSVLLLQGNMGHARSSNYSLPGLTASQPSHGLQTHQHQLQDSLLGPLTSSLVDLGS
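AlphaScreen luminescence read after one hour at 37 °C in darkness. Pin-transferred compounds met GST-Six1 and His-Eya2 protein (5X stock 250 nM/500 nM) plus glutathione donor and Ni-chelate acceptor beads (5X, 50 ug/mL).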
Sfp inh – inhibitors of Bacillus subtilis Sfp phosphopantetheinyl transferase | AID 1490 | Potency, µM, inactives show max response, negative = inhibition, most hits filed as inhibitors | 310,000 compounds, 3.5% hits | Q9F4F7 | Biochemical Sfp PPTase activity, qHTS; active = well fitted inhibition curve with a large enough effect; inconclusive = small, poorly fitted or top-dose-only effect, or another doubt; inactive = no such curve, though single readings can be large or run the other way;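 note: the enzyme is Sfp with the accession as filed and its product quenches rhodamine fluorescence; potency is the fitted concentration of half-maximal effect; 0% = enzyme reaction without inhibitor and -100% = no enzyme wells; top concentration of the series not given in the record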
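Fluorescence-quenching assay: 15 nM Sfp-PPTase preincubated 15 min at room temperature with compound, then 5 uM rhodamine-CoA and 12.5 uM BHQ-2-labelled YbbR peptide added. Fluorescence (ex 525/em 598 nm) read at start and after 30 min; difference gives rate.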
D2 PAM – positive allosteric modulators of human D2 dopamine receptor; DiscoveRx D2 beta-arrestin cells, luminescence, 90 min; 100% = 57 uM dopamine signal; potentiation, % (concentration not given with the values); 360,000 compounds, 0.23% hits; active = potentiation of 50% or more; inconclusive = 30% to 50%; inactive = 30% or less;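 note: tested on top of an EC20 dose of dopamine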
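PathHunter beta-arrestin assay in DiscoveRx D2 cells. Compounds were added with an EC20 of dopamine (50 nM final) for 90 min at 37 deg C. Luminescence was read 1 h after detection reagent, with 57 uM dopamine as the EC100 control.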
CtBP-E1A inh – inhibitors of CtBP/E1A interaction; 340,000 compounds, 0.49% hits; AlphaScreen GST-E1A/His-CtBP binding, 1536-well; stronger effect = lower value; control for the full effect not named in the record; activity change, % (concentration not given with the values); in the data active means activity change below about -65%; inconclusive means about -30% to -65%; inactive means above about -30%; note: % is set by controls: 0 for no effect and ±100 for the full control effect
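Protein mix (5X: 125 nM each GST-E1A, His-CtBP) was incubated with pinned compound 2 h at 37 deg C in dark, in 50 mM Tris pH 8.0 buffer with 300 mM NaCl. Glutathione donor and nickel acceptor beads followed; AlphaScreen signal read after 1 h.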
The depositor's hits bear a star; ? = inconclusive; / = no result given; [ ] = dose if it differs, or a comment.

SMILES	D2 agonist	TRPV1 potentiator	PINK1 expr mod	Six1-Eya2 blk	Sfp inh	D2 PAM	CtBP-E1A inh
CCc1c(C)nc(SC)n(CC#N)c1=O	-4.1	5.9	1.0%	3.1	1.8%	-21.2	-1.2
CC(C)(C)NC(=O)C(c1ccc(O)cc1)N(C(=O)CCC(=O)Nc1nccs1)c1ccccc1F (stereo not given)	-2.8	12.7	4.0%	2.0	12.4%	-5.2	0.0
O=S(=O)(c1ccccc1)c1cnc(-c2cccnc2)nc1-c1ccc(Cl)cc1Cl	1.5	3.0	1.5%	-2.0	-13.2%	-0.4	-8.6
COc1ccc(-c2cc(-n3c(C(F)(F)F)nc4ccccc43)n(CCC#N)n2)cc1	2.1	14.7	-1.0%	-6.2	11.3%	5.5	-0.2
CC(C)CCN1CC(=O)N2[C@@H](Cc3c([nH]c4ccccc34)C2(C)C)C1=O	8.4	-1.1	0.4%	3.3	12.3%	-1.2	12.6
O=C(Cc1coc2cc3c(cc12)CCC3)OCc1cc(=O)n2c(n1)sc1ccccc12	-4.7	-10.9	0.5%	-2.9	39.8µM*	-2.9	-1.0
CCN(CC(=O)NCc1ccc(Cl)cc1)C(=O)c1cc(S(=O)(=O)NCc2ccccc2)ccc1C	3.5	-7.2	5.2%	-0.1	5.1%	12.2	-4.5
O=C(Nc1ccc(F)cc1F)c1ccccc1-c1ccccc1	-2.1	4.2	3.2%	40.1	9.6%	-2.9	34.4
O=C(Nc1ccccc1)Nc1cccc(NC(=O)Nc2ccccc2)c1F	1.2	1.1	0.9%	0.9	10.6%	0.3	0.0
O=C1CC(N2CCN(S(=O)(=O)c3ccccc3F)CC2)C(=O)N1c1ccccc1F (stereo not given)	8.8	/	1.6%	3.8	/	-2.7	1.4
COC(=O)c1sc(-c2ccc(C(C)(C)C)cc2)cc1NC(=O)COCC(=O)O	2.3	-5.6	1.1%	-7.2	-10.2%	-4.2	-1.2
CCC(Oc1ccccc1)C(=O)N1CCN(S(=O)(=O)c2ccccc2)CC1 (stereo not given)	-2.9	-8.4	0.7%	-1.3	/	-3.4	/
CCCC(C(=O)NCCC(C)C)N(Cc1ccccc1Cl)C(=O)c1snc(C(N)=O)c1N (stereo not given)	0.4	14.7	0.2%	9.5	-6.3%	-1.9	/
O=C(CCn1c(=O)sc2ccccc21)NCc1cccs1	-1.1	-34.3	/	6.7	-3.0%	-14.3	-4.0
O=C(Nc1ccc2c(c1)OCO2)c1ccc[n+]([O-])c1	-2.0	6.9	/	-2.8	-3.3%	-13.7	1.7
CN(c1ccccc1)S(=O)(=O)c1ccc(C(=O)N2CCCC(C(F)(F)F)C2)cc1 (stereo not given)	7.7	-5.2	1.0%	7.6	5.6%	16.5	-6.8
CC(C)=C1SC(N2CCOCC2)=NC1=O	-2.0	10.9	1.3%	12.3	19.3%	-1.4	-6.9
O=C(/C=C/c1ccccc1[N+](=O)[O-])N1CCc2ccccc2C1	-1.8	-18.5	0.0%	0.8	6.0%	-10.3	2.3
CCOc1ccc(-c2c(C(=O)N/N=C/C3CC=CCC3)nnn2-c2nonc2N)cc1 (stereo not given)	3.3	-12.6	0.5%	2.4	12.0%	-6.3	5.3
CCOC(=O)C1CCN(CCC(=O)Nc2ccc(Cl)cc2)CC1	3.4	5.4	-2.2%	3.9	2.7%	-41.4	-0.2
COCCN1C(=O)N(c2cccc(C)c2)C(=O)C1CC(=O)Nc1ccc(F)cc1 (stereo not given)	-1.7	-1.8	-2.2%	7.4	6.7%	-11.6	3.2
Nc1c(C(=O)NCc2ccco2)sc2nc3c(cc12)C(=O)CCC3	1.8	2.8	14.6%[38.3 µM]	-19.9	-17.9%	15.0	-17.9
CCOC(=O)c1c(NC(=O)Nc2cccc(Cl)c2)sc(C)c1C	0.4	-15.5	13.2%	4.8	-1.1%	-2.4	-3.3
Cc1ccc2c(C)c(C(=O)N(C)C(C)c3ccon3)oc2c1C (stereo not given)	-5.5	-4.8	-0.7%	4.8	-0.3%	-2.9	1.2
CCOc1ccc(C(=O)NCc2ccco2)cc1OCC	1.6	?	0.3%	2.2	17.9%	-10.2	-9.8
CC(NC(=O)c1cccc(S(=O)(=O)N2CCN(Cc3ccccc3)CC2)c1)c1ccc(Cl)cc1 (stereo not given)	-0.5	1.9	-0.5%	-2.4	/	-7.7	-6.7
CCOc1ccccc1/C=N/Nc1ccnc(=O)[nH]1	4.9	-3.6	0.8%	-6.4	-26.0%	7.1	-16.2
CC(C(=O)O)n1cc(C#N)c(=O)[nH]c1=O (stereo not given)	1.8	/	-0.7%	3.7	/	-2.5	1.7
CCCCn1c(CN2CCN(c3ccccc3)CC2)nc2c1c(=O)n(C)c(=O)n2C	-6.2	22.9	0.4%	-0.5	-2.3%	-13.9	-4.4
Cc1ccc(N(C(=O)C2CCCO2)C2C=CS(=O)(=O)C2)cc1Cl (stereo not given)	0.3	-2.9	2.3%[38.3 µM]	2.7	3.6%	-13.7	4.5
CCn1c(SCC(=O)Nc2ccc3c(c2)c2ccccc2n3CC)nnc1-c1cnccn1	-2.2	-18.9	-2.8%[38.3 µM]	-19.2	-0.8%	-14.5	17.5
CCCN1CC23C=CC(O2)C(C(=O)O)C3C1=O (stereo not given)	-1.9	14.5	8.6%	-1.2	14.1%	-1.6	4.8
Cc1ccc(S(=O)(=O)Nc2ccnc(-c3cccnc3)n2)cc1	0.1	24.6	-1.4%	-2.9	23.1%	-4.5	-20.9
Cc1cccc(/C=N/NC(=O)Cc2ccc(Cl)cc2)c1O	-3.5	-27.7	5.6%	7.4	6.7%	-82.1	/
COc1ccc(NC(=O)CC2C(=O)NCCN2C(=O)Nc2ccc(C(F)(F)F)cc2)cc1 (stereo not given)	1.1	-6.6	9.6%	1.6	2.2%	11.0	7.2
NC(=O)C1CCN(S(=O)(=O)Cc2ccccc2Cl)CC1	-0.7	22.6	-2.4%	9.4	25.5%	-11.7	/
CN(C)CCCn1c(SCc2c(Cl)cccc2Cl)nnc1-c1ccncc1	-4.6	0.8	-0.1%	4.9	-17.3%	-5.4	-15.1
O=C(Nc1cc(C(F)(F)F)ccc1N1CCOCC1)c1ccc2ccccc2n1	-0.5	4.0	19.2%[38.3 µM]	1.6	?	-0.7	-0.7
CCOc1cccc(/C=N/N2C(=O)CSC2=S)c1O	-1.6	2.9	0.7%	-92.8*	10µM*	6.9	-92.9*
COC(=O)[C@]1(Sc2ccc(C)cc2)CC(=O)N[C@@H]1c1ccccc1	/	/	1.3%	0.9	/	/	5.0
Cc1cc(C)cc(NC(=O)C[n+]2ccccc2)c1	-7.4	14.6	-2.0%	-0.3	-3.0%	-12.2	7.5
Cc1nn(C)cc1/C=N/NC(=O)Cn1cncn1	1.5	-2.7	29.3%	1.5	-9.4%	-8.2	2.6
CC(C)CC1OC(C)Cc2[nH][nH]c(=O)c21 (stereo not given)	/	/	-0.9%	5.7	/	/	-4.8
Cc1ccccc1CN(c1ccc(C(=O)NCc2ccccn2)cc1)S(C)(=O)=O	0.7	4.2	-1.2%	2.9	13.2%	1.0	-6.9
Cc1ccc(N(C(=O)Cn2nnc(-c3cccs3)n2)C(C(=O)NC2CCCC2)c2ccncc2)cc1 (stereo not given)	1.2	/	16.4%[38.3 µM]	1.6	8.8%	22.0	39.9
CCn1c(SCC(=O)c2ccc(Cl)cc2)nnc1C(C)C	-7.3	-0.1	0.6%	17.7	-24.9%	-20.0	0.9
CCOc1ccccc1C(=O)Nc1ccc2nc(N3CCN(c4ncccn4)CC3)cc(C)c2c1	-3.4	/	-4.0%	-0.2	/	0.8	0.8
COc1ccccc1NCC(=O)N/N=C(\C)c1ccc(Br)s1	-3.1	8.9	?	5.6	17.4%	-3.0	-9.6
COC(=O)CN1C(=O)N/C(=C/c2ccc(C)o2)C1=O	-5.1	-12.9	1.4%	13.6	22.4µM*	-8.9	7.8
O=C(CCNS(=O)(=O)c1ccccc1)NCCCc1ccccc1	-6.7	2.1	0.4%	-0.4	/	-1.6	15.7

(cont.)
SMILES	D2 agonist	TRPV1 potentiator	PINK1 expr mod	Six1-Eya2 blk	Sfp inh	D2 PAM	CtBP-E1A inh
Cc1cc(Cl)ccc1NC(=O)/N=C1/NC(=O)CS1	-4.8	/	2.1%	6.7	/	-4.1	3.1
COc1ccccc1OCC(=O)Nc1ccncc1	-4.2	0.9	-0.8%	-7.3	15.9%	-4.1	/
COc1ccc(NC2CCCN(C(=O)c3csc(C(C)C)n3)C2)cc1 (stereo not given)	2.3	-6.6	-1.0%	-5.4	20.9%	-4.9	0.8
Cc1ccc(S(=O)(=O)Nc2ccc3c(c2)C(=O)N([C@@H](C)CO)C[C@@H](C)[C@@H](CN(C)S(=O)(=O)c2ccccc2)OCCCC[C@H](C)O3)cc1	-7.7	/	0.6%	-1.9	/	2.7	-1.7
Cc1cnc(NC(=O)CCCNC(=O)c2ccc(Cl)cc2)s1	2.4	-7.4	2.2%	-9.0	/	-16.6	/
COc1cccc(C(=O)c2sc(NC(C)C)nc2N)c1	-1.2	?	-1.5%	-29.1	?	-26.3	-10.5
Cc1ccc(N(CC(=O)NC(C)C)C(=O)CCC(=O)Nc2nccs2)cc1C	3.9	-4.4	1.3%	4.7	7.1%	0.7	5.7
O=C(Nc1ccc(F)cc1)c1nn(-c2ccccc2)c(=O)cc1Cl	1.5	6.1	-0.9%	14.4	18.2%	0.9	18.8
Cc1nc2c(ccc3c2ccc2nc(C)sc23)s1	4.1	12.3	7.7%	14.1	4.1%	-3.0	-1.9
O=C(OCCN=C1NS(=O)(=O)c2ccccc21)c1cccs1	-5.0	-14.1	-2.8%	0.2	18.5%	-3.6	-14.7
CCn1c(=O)c2c(n3cnnc13)-c1ccccc1CC21CCCCC1	-2.6	-6.4	-1.3%	5.6	4.2%	-15.2	4.3

Part of the list above in another layout.
COc1ccc(-c2cc(-n3c(C(F)(F)F)nc4ccccc43)n(CCC#N)n2)cc1
  D2 agonist: 2.1; TRPV1 potentiator: 14.7; PINK1 expr mod: -1.0%; Six1-Eya2 blk: -6.2; Sfp inh: 11.3%; D2 PAM: 5.5; CtBP-E1A inh: -0.2

O=C(Nc1ccc(F)cc1)c1nn(-c2ccccc2)c(=O)cc1Cl
  D2 agonist: 1.5; TRPV1 potentiator: 6.1; PINK1 expr mod: -0.9%; Six1-Eya2 blk: 14.4; Sfp inh: 18.2%; D2 PAM: 0.9; CtBP-E1A inh: 18.8
